VACV mCherry inh = qHTS for Stage-Specific Inhibitors of Vaccinia Orthopoxvirus: mCherry Reporter Primary qHTS; Potency, µM (titrated, usually from 36.5 µM), inactives show top-dose activity change, negative = inhibition, hits mostly inhibitors; 310,000 tested, 0.63% active; Vaccinia virus mCherry reporter infection, fluorescence; about a quarter of the inactives have no number; active = well fitted inhibition curve with a large enough effect; inconclusive = small, poorly fitted or top-dose-only effect; inactive = no such curve, though single readings can be large or run the other way; tested in A549 cells; further: nearly all actives have a fitted effect of over 35% in size; inactives centre near -10
VACV Venus inh = qHTS for Stage-Specific Inhibitors of Vaccinia Orthopoxvirus: Venus Reporter Primary qHTS | Vaccinia virus Venus reporter expression, fluorescence | Potency, µM (titrated, usually from 36.5 µM), without a hit: top-dose activity change, negative = inhibition, usual class: inhibitors | 330,000 tested, 0.46% active; active means well fitted inhibition curve with a large enough effect; inconclusive means small, poorly fitted or top-dose-only effect; inactive means no such curve, though single readings can be large or run the other way; tested in A549 cells; further: nearly all actives have a fitted effect of over 30% in size; inactives centre near -10
Starred values were filed as active, the others as inactive; i = inactive; ? = inconclusive; nt = not tested or not shown; & = joins results of further samples; [ ] = remark or other dose. On the % scale 0 is the no-effect control and ±100 the full control effect; potency means the concentration at half of the fitted maximal effect.

Start of the data: the first two records as a preview:
Results follow in this order: VACV mCherry inh | VACV Venus inh
COC(=O)C1=CCCN(C)C1
 : -12% | -4%&-5%
C[C@@H]1C[C@H]2[C@@H]3C[C@H](F)C4=CC(=O)C=C[C@]4(C)[C@@]3(Cl)[C@@H](O)C[C@]2(C)[C@H]1C(=O)COC(=O)C(C)(C)C
 : i | -26%

The listing, from the first entry:
Results follow in this order: VACV mCherry inh | VACV Venus inh
COC(=O)C1=CCCN(C)C1
 : -12% | -4%&-5%
C[C@@H]1C[C@H]2[C@@H]3C[C@H](F)C4=CC(=O)C=C[C@]4(C)[C@@]3(Cl)[C@@H](O)C[C@]2(C)[C@H]1C(=O)COC(=O)C(C)(C)C
 : i | -26%
CCOc1ccc(NC(=O)CC2C(=O)N(CC)C(=S)N2NC(=O)c2ccncc2)cc1 (stereo unspecified)
 : -12% | -9%
CS(=O)(=O)Oc1ccc(Br)c2cccnc12
 : -2% | -16%
Cc1nc(-c2ccccc2)sc1-c1ccc(SCC(=O)NCc2ccccc2)nn1
 : -23% | -15%
CCCNC(=O)NC(=O)CSc1nncs1
 : i | -22%
CCN(CC)c1cnn(C/C(=N\OC)c2ccc(Cl)cc2)c(=O)c1Br
 : nt | -26%
COC(=O)c1cnc(Oc2ccc(NC(=O)NC(=O)c3c(OC)cccc3OC)cc2)cc1C(F)(F)F
 : ? | ?
CCOC(=O)c1ccc(-c2c(-c3cc(OC)c(OC)c(OC)c3)noc2C)cc1F
 : -19%&-10% | ?
COc1ccc(OCCC(=O)OCC(=O)NC(=O)NC(C)C)cc1
 : -11% | -8%
CCn1cc(S(=O)(=O)c2ccc(C)cc2)c(=O)c2cc(F)c(N3CCN(C)CC3)cc21
 : -25% | -16%
O=C(NC1CCCCCC1)C1CCN(C(=O)c2ccc(Cl)cc2)CC1
 : -20% | -9%
Cc1cc(C)n(-c2ccc(C(=O)Nc3ccc4c(c3)OCCO4)cc2)n1
 : nt | -27%
COc1ccc(OC)c(-c2csc3nnc(SCC(=O)Nc4ccc(NC(C)=O)cc4)n23)c1
 : -23% | -11%
COC(=O)c1cc2c(s1)-c1ccccc1OC2
 : -4% | 13%
CCCCNC(=O)/C(=C/c1ccco1)NC(=O)c1ccco1
 : i | -6%
CCOCCCn1c(SCC(=O)Nc2oc(C)c3c(C)n[nH]c(=O)c23)nnc1-c1ccncc1
 : ? | -10%
O=C(Oc1ccc(-c2ccccc2)cc1)C1C2CCCCC21 (stereo unspecified)
 : i | -12%
Cc1ccc(N2CC(C(=O)Nc3ccc4c(c3)OCO4)CC2=O)cc1C (stereo unspecified)
 : -18% | 0%
Cc1ccc(Cn2nc(C)c(NC(=O)C3(C)CC3(Br)Br)c2C)cc1 (stereo unspecified)
 : -21% | -18%

(cont.)
Results follow in this order: VACV mCherry inh | VACV Venus inh
O=C(C[N+]12CCCc3cccc(c31)CCC2)c1ccc(Cl)c2ccccc12
 : -12% | -4%
CN(C)S(=O)(=O)c1ccc(N2CCCC2)c(C(=O)Nc2ccccc2F)c1
 : i | -12%
COc1ccc(-c2[nH]ncc2N=Nc2ccccc2)cc1
 : ? | ?
O=C(Cc1ccc(OCc2ccccc2)cc1)NO
 : 31%[activator] | -6%
CN(C)c1cccc(C(=O)NCc2ccc(Cl)cc2)c1
 : -2% | -1%
CCC(CC)c1nnc(NC(=O)c2nc3nc(C)cc(C)n3n2)s1
 : nt | -13%
COc1cccc(CNc2nc3cc(-c4ccc(C)cc4)sc3c(=O)n2C)c1OC
 : -13% | -23%
N=c1c2c(-c3ccccc3)c(-c3ccccc3)n(Cc3ccco3)c2ncn1CCO
 : -27% | ?
COc1ccc(NC(=O)COc2cccnc2[N+](=O)[O-])cc1OC
 : i | -4%
O=C(Cn1nnc(-c2ccccc2)c1COc1ccc2ccccc2c1)NCC1CC1
 : ? | -24%
CCOC(=O)c1sc(Nc2nc3ccc(OC)cc3s2)cc1C
 : -35% | -20%
Cc1ccccc1NC(=O)C1CCC(CNS(=O)(=O)c2ccc3c(c2)C(C)(C)C(=O)N3C)CC1 (stereo unspecified)
 : -16% | -12%
O=C(CN(C(=O)c1csnn1)c1cccc(Cl)c1)NCCc1ccccc1
 : -10% | -6%
COc1ccc2[nH]c(=O)c(CNC3CCCCC3)cc2c1
 : nt | 59%[activator]
COc1ccc(CN2c3cc(S(=O)(=O)N4CCOCC4)ccc3N3CCCC32)cc1 (stereo unspecified)
 : nt | -9%
Cc1ccc(-c2csc(-c3c[nH]c4ccccc34)n2)cc1
 : ? | ?
CC(=O)N1CCN(S(=O)(=O)c2cccc(C(=O)NNC(=O)COc3c(C)cccc3C)c2)CC1
 : i | -11%
CCc1ccccc1OCC(=O)N1CCN(c2ncccn2)CC1
 : i | -15%
CNC1[C@@H](O)C(OC2C(N)C[C@H](N)[C@@H](O[C@@H]3OC(C(C)O)C(O)C(O)C3N)C2O)OC[C@]1(C)O (stereo partly specified)
 : -17% | -15%
OCC1OC2C(NC(=S)N2c2ccccc2)C(O)C1O (stereo unspecified)
 : i | -3%

(further entries)
Results follow in this order: VACV mCherry inh | VACV Venus inh
CCN(C(=O)COC(=O)/C(=C/c1ccccc1)n1nnnc1C)C1CCCCC1
 : ? | -22%
COc1cccc(/C=N/N2C(=O)NC3(CCCCC3)C2=O)c1O
 : -15% | -14%
Clc1ccc(C(c2nnnn2C2CCCC2)N2CCN(Cc3ccncc3)CC2)cc1 (stereo unspecified)
 : i | -21%
CC(=O)NC1CC2CCCC(C1)N2C(=O)Nc1cccc(C)c1 (stereo unspecified)
 : i | -3%
NS(=O)(=O)c1ccc(CCNC(=O)CSc2nc3ccccc3c3nc(CCN4CCCCC4)nn23)cc1
 : -16% | -10%
Oc1ccccc1N=Nc1ccccc1O
 : ? | ?
Cc1ccc(S(=O)(=O)Nc2ccccn2)cc1[N+](=O)[O-]
 : i | -9%
Cc1ccccc1CO/N=C/c1[nH]ncc1Br
 : i | -14%
COc1cc(C(O)c2nc(-c3cnn(C)c3)cs2)ccc1F (stereo unspecified)
 : i | 5%
CC(NCCc1ccc(S(N)(=O)=O)cc1)C(=O)NCc1ccccc1 (stereo unspecified)
 : i | -22%
NC(=O)c1cc(Br)cc2c3c([nH]c12)CCCC3
 : ? | ?
CCOc1ccc(-n2c(SCC(=O)Nc3cc(OC)c([N+](=O)[O-])cc3C)nc3ccccc32)cc1
 : i | -2%
COc1cccc(/C=C2/C(=O)NN(c3ccccc3)C2=O)c1
 : -8% | -7%
S=Cc1nc2ccccc2[nH]1
 : 31%[activator] | -10%
CCCSC1=C(C#N)C(c2ccccc2C)C(C(=O)OC)C(=O)N1 (stereo unspecified)
 : i | -11%
COc1ccc(NC(=O)ON=C2c3ccccc3-c3ccccc32)cc1
 : ? | -28%
CCCCn1c(O)c(C=NC2CCCCC2N)c(=O)[nH]c1=O (stereo unspecified)
 : nt | -3%
COC(=O)c1c(NC(=O)Cc2ccccc2)sc2c1C(C(=O)OC)CC2 (stereo unspecified)
 : ? | ?
Cc1cccn2c(=O)c(C=O)c(Cl)nc12
 : -15% | -14%
COc1cc(C(=O)Nc2ccc(N3CCCS3(=O)=O)cc2)c([N+](=O)[O-])cc1OC
 : -11% | 4%

Pulled by structure from the entries so far (three):
Results follow in this order: VACV mCherry inh | VACV Venus inh
CCN(C(=O)COC(=O)/C(=C/c1ccccc1)n1nnnc1C)C1CCCCC1
 : ? | -22%
NS(=O)(=O)c1ccc(CCNC(=O)CSc2nc3ccccc3c3nc(CCN4CCCCC4)nn23)cc1
 : -16% | -10%
COC(=O)c1c(NC(=O)Cc2ccccc2)sc2c1C(C(=O)OC)CC2 (stereo unspecified)
 : ? | ?

Remaining list, next part.
Results follow in this order: VACV mCherry inh | VACV Venus inh
Cc1[nH]nc(S(=O)CC(=O)O)c1[N+](=O)[O-] (stereo unspecified)
 : i | -6%
N#CCc1ccc(NS(=O)(=O)c2ccc(N3CCCC3=O)cc2)cc1
 : -17% | -10%
Cc1cccc(NC(=O)COC(=O)[C@@H]2CCCN2C(=O)c2cccs2)c1
 : -11% | -1%
CCOC(=O)c1c(C)n(S(=O)(=O)c2ccc(C)cc2)c2ccc(NS(=O)(=O)c3ccc(C)cc3)cc12
 : -27% | -19%
Cn1c(SCC(=O)N/N=C/c2cccs2)nc2ccccc21
 : -21% | -13%
C=CC#CC1(O)CC(C)N(C)CC1C (stereo unspecified)
 : -7% | -7%
Cc1cc(C)cc(NC(=O)c2c(C)oc3nc(C)nc(N4CCCC4)c23)c1
 : i | -6%
C[C@H](CO)N1C[C@H](C)[C@@H](CN(C)C(=O)NC2CCCCC2)Oc2ccc(NC(=O)C3CC3)cc2C1=O
 : -22% | -7%
O=C(O)c1cccc2[nH]c(C(F)(F)F)nc12
 : nt | -7%
CCOC(=O)Cn1cnc2c(cnn2-c2ccc(C)c(C)c2)c1=O
 : -3% | -7%
Cc1ccc(CCNC(=O)c2oc(=O)c3ccccc3c2-c2ccc(C)cc2)cc1
 : -9% | -8%
Cc1nc2ccccc2n1CC(=O)NC(C)C1CC2CCC1C2 (stereo unspecified)
 : -17% | -17%
Cc1ccc(-c2nc(N)sc2-c2ccc(C)cc2)cc1
 : -4% | -12%
CCC(C)NC(=O)CCc1nc2ccccc2n1-c1ccccc1 (stereo unspecified)
 : -12% | -5%
CCn1c(=O)c2cc(C(=O)N(C)c3ccccc3F)sc2c2ccccc21
 : -4% | -19%
Cc1cc(C)c2nc(NC(=O)c3ccc4c(c3)OCO4)sc2c1
 : i | -8%
O=S(=O)(c1ccccc1)[C@@]1(c2ccccc2)C[C@@H]2ON=C(c3cccc(Br)c3)[C@@H]2C1
 : -18% | ?
c1cn2c(-c3ccoc3)cncc2n1
 : 3% | 2%
CC(C)(C)NC(=O)NC(=O)COC(=O)Cc1c(F)cccc1Cl
 : i | -11%
C[C@]12CC[C@H](O)CC1=CCC1C2CC[C@@]2(C)C1CCC21OCCO1 (stereo partly specified)
 : -23% | -18%

(next part)
Results follow in this order: VACV mCherry inh | VACV Venus inh
CCCC(=O)O[C@@H]1C[C@@H](C)N(C(=O)c2ccccc2)c2ccc(C)cc21
 : nt | 1%
CCS(=O)(=O)N1CCC(NC(=O)c2ccco2)CC1
 : -11% | -12%
COc1ccc(OCC(=O)Nc2sc3c(c2C(=O)NCC2CCCO2)CCC3)cc1 (stereo unspecified)
 : -27% | -14%
Cc1cccc(Cn2c(=O)n(CC3CCC(C(=O)NC(C)C)CC3)c(=O)c3sccc32)c1 (stereo unspecified)
 : -13% | -11%
Cc1ccc(S(=O)(=O)Nc2ncnc3ccccc23)cc1
 : -11% | -22%
COc1ccc(Cl)c2c1[nH]c1nc(SCc3cccnc3)nnc12
 : 2% | -1%
N=c1n(CCCOc2ccc(F)cc2)c2ccccc2n1CC(N)=O
 : -31% | -18%
N/C(Cc1ccc([N+](=O)[O-])cc1)=N\OC(=O)c1ccc([N+](=O)[O-])cc1
 : -8% | -13%
Cc1nn(C)cc1S(=O)(=O)N1CCN(c2ccc(F)cc2)CC1
 : ? | -4%
COc1ccccc1C(=O)COC(=O)c1cc([N+](=O)[O-])ccc1N1CCOCC1
 : i | -8%
CCOC(=O)[C@H](CCc1ccccc1)N[C@@H](C)C(=O)N1[C@H](C(=O)O)C[C@@H]2CCC[C@@H]21
 : -20% | -10%
CC(C)Oc1cccc(C(=O)C2CCCN(Cc3ccon3)C2)c1 (stereo unspecified)
 : -3% | -6%
c1ccc(-c2ncnc3ccccc23)cc1
 : i | -6%
Fc1ccc(-c2nc(-c3cccs3)c(-c3cccs3)[nH]2)cc1
 : -26% | -21%
O=C(OCC(=O)N1CCc2ccccc21)c1ccc[nH]c1=O
 : -6% | -10%
CS(=O)(=O)N1CCCCC1c1cc(C(=O)NCc2ccc(F)cc2)no1 (stereo unspecified)
 : -18% | 0%
COc1ccc(C2OC3C(CO)OC(n4cnc5c(=O)[nH]c(N)nc54)C3O2)cc1 (stereo unspecified)
 : i | 1%
Cc1cc(N(CCO)CCO)ccc1N=Nc1cc(F)ccc1F
 : -23% | ?
CCC12C(=O)C(CC)(C(c3ccccc3)=C1c1ccccc1)[C@@H]1C(=O)N(c3ccc(C)cc3)C(=O)C12 (stereo partly specified)
 : -11% | -6%
CC(=O)Nc1cccc(C(=O)OCC(=O)N2CCC(c3ccccc3)=N2)c1
 : -21% | -6%

(next part)
Results follow in this order: VACV mCherry inh | VACV Venus inh
CC(C)N1C(=O)CCC1C(=O)N1CCN(c2ccccn2)CC1 (stereo unspecified)
 : i | -8%
O=C(c1ccc(C(F)(F)F)cc1)N1CCC(=O)N(C(CO)Cc2ccccc2)CC1 (stereo unspecified)
 : i | -5%
COc1ccc(-c2nc3ccccc3nc2-c2ccccc2)cc1OC
 : -21% | -11%
CCC1(C2CCN(Cc3cccnc3)CC2)NC(=O)N(CC2COc3ccccc3O2)C1=O (stereo unspecified)
 : -13% | -14%
COc1ccc(-c2csc(NC(=O)c3ccccc3Br)c2C(=O)O)cc1
 : i | -13%
CCOC(=O)C1=C(N)OC2=C(C(=O)CCC2)C1c1ccco1 (stereo unspecified)
 : nt | -7%
NC(=O)NN=C1CC2CC1C1C=CCC21 (stereo unspecified)
 : -15% | -17%
CC(C)(C)S(=O)(=O)/C(C#N)=N/Nc1ccc(S(C)(=O)=O)cc1
 : 15% | 1%
Cc1ccccc1N1C(S)=C(C#N)C(=O)NC12CCCCC2
 : -6% | -1%

Part of the list above, as comma-separated lines.
SMILES,VACV mCherry inh,VACV Venus inh
COc1ccc(-c2nc3ccccc3nc2-c2ccccc2)cc1OC,-21%,-11%
CCC1(C2CCN(Cc3cccnc3)CC2)NC(=O)N(CC2COc3ccccc3O2)C1=O (stereo unspecified),-13%,-14%
